Vif TR-FRET – inhibitors of Vif binding to APOBEC3G peptide, primary screen, biochemical, TR-FRET, GST-Vif 1-94, biotin-A3G peptide, dose response retest (AID 1117319) | inhibition, %, or IC50 in µM where a hit was titrated | TR-FRET GST-Vif / biotin-A3G peptide binding; higher % means a stronger effect; test concentration not given here; strong numbers were not always called active | actives 0.57% (n = 260,000) | Virion infectivity factor (Human immunodeficiency virus type 1 group M subtype B (isolate …;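 active = above the screen mean plus three standard deviations and confirmed in dose response; inconclusive = results disagree or hit not tested in dose response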;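 note: Vif residues 1-94 fused to GST binding biotinylated APOBEC3G peptide 110-148; 0% = full assay without inhibitor and 100% = GST in place of GST-Vif; retest series ran down from 100 µM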
MLL AF4-AF9 inh – inhibitors of AF4 peptide binding to AF9, primary screen, biochemical, AlphaScreen, biotin-AF4 peptide, FLAG-AF9, single point; inhibition, % at 10 µM; actives 0.47% (n = 350,000); Protein AF-9 (Homo sapiens), P42568; AID 651704, 2012;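 active = every replicate reaching a set inhibition limit, whatever the replicate mean, cut at about 25% in these data; inconclusive = mean inhibition reaches that limit but some replicates miss it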;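 note: 0% = plate neutral control median and 100% = total signal loss; the record names both 10 and 1 µM as test concentration; the first replicate is given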
Target sequence (P42568 whole entry, looked up): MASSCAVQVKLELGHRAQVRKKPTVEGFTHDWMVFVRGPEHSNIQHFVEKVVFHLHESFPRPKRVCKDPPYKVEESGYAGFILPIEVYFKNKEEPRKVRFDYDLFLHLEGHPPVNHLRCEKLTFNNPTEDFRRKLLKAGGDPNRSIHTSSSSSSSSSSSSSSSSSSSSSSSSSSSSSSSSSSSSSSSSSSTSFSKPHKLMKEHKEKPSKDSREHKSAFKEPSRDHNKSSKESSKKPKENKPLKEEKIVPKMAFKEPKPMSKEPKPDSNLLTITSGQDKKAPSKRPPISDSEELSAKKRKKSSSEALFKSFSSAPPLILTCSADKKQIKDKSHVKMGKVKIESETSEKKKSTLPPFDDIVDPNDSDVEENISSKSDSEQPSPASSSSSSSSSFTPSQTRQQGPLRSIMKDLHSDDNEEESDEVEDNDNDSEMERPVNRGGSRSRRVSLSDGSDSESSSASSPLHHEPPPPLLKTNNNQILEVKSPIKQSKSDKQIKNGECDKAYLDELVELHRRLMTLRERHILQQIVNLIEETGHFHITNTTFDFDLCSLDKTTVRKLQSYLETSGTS
HNF4A DNA FP – change in binding of human HNF4A to DNA, primary screen, biochemical, fluorescence polarization, FITC-DNA | Hepatocyte nuclear factor 4-alpha (Homo sapiens), P41235 | 1 h | activity change, % at 10 µM | actives 0.3% (n = 360,000); in the data active = activity change above about 30%, passing the limit was not always enough;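 note: controls were the assay level and a saturating level of protein; the project sought stronger binding though the title names inhibitors; some compounds called inactive have numbers as strong as hits; positive values seem to mean higher polarization but the record does not say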
Target sequence (P41235 whole entry, looked up): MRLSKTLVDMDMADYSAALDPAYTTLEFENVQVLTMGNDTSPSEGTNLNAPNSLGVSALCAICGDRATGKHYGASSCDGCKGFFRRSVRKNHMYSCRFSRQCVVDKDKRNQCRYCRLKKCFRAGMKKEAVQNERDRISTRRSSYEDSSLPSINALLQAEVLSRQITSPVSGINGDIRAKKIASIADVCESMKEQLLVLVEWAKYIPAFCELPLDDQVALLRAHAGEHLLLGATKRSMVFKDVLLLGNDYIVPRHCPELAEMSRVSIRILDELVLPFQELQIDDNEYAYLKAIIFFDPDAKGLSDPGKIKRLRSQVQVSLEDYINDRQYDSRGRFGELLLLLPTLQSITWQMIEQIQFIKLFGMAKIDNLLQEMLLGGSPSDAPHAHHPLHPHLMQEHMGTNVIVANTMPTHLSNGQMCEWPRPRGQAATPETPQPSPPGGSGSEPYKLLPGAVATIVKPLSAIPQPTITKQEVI
ALR inh – inhibitors of human ALR sulfhydryl oxidase, primary screen, biochemical, H2O2 detection, HRP-luminol luminescence, single point; AID 485317, 2010; purified ALR, DTT oxidation; actives 3.8% (n = 290,000); inhibition, % (no concentration beside the values);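 active = mean and each replicate at 75% or more; inconclusive = only one of the two met; inactive = neither met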;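 note: stock transfer was 7.5 nL into about 7.5 µL; 0% = neutral wells and 100% = wells with inactivated enzyme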
FGF22 binding – binders of human FGF22 protein, primary screen, FGF22 synaptogenesis inhibitor project, biophysical, thermal shift, single point | Fibroblast growth factor 22 (Homo sapiens), Q9HCT0 | calls only at 9.99 µM | actives 1.5% (n = 340,000) | recombinant FGF22 thermal shift, SYPRO orange fluorescence; percent of sucrose octasulfate shift, DMSO zero;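 active = melting point raised past a set limit in the mean and every replicate; inconclusive = no clear call; three in four hits are not shown here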
E coli growth – E. coli growth inhibition, primary screen, OD600. actives 0.21% (n = 330,000). Escherichia coli growth, 23 h; stronger effect = lower value. OD600 absorbance (concentration not given with the values). AID 1053175, 2014;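 active = OD600 absorbance below the run mean of sample wells minus 3.6 SD, in any replicate, cut at about 0.56 in these data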;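 note: stock transfer was 300 nL into about 60 µL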
Ecoli rRNA inh – reduced GFP signal of wild-type E. coli, primary screen, bacterial rRNA inhibitor project, GFP/RFP fluorescence, OD600, single point | E. coli WT GFP vs humanized-ribosome RFP mutants, 24 h; stronger effect = lower value; DMSO median 0, no signal -100 | GFP signal change (wild-type ribosome), % (test concentration not listed) | actives 1.6% (n = 350,000);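 active = significant combined selectivity score with lowered wild-type GFP, culture density cut under 30%, mutant RFP and density less affected; inactive = any of these conditions unmet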; note: one replicate is shown; some compounds called inactive have numbers as strong as hits
Ecoli rRNA inh OD600 – second read-out of Ecoli rRNA inh, no call of its own (marks repeat the call); OD600 change, %; measured here: OD600 growth;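 optical density of the mix in the first replicate; 0 = DMSO median and -100 = no signal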
Ecoli rRNA inh RFP – also measured in Ecoli rRNA inh; calls as there; RFP signal change, %; measured here: RFP humanized mutant strains;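 first replicate; 0 = DMSO median and -100 = no signal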
An asterisk follows results filed as active; i = inactive; ? = inconclusive; · = no result given; + = active, no number; & = joins results of further samples. These rows are one share of the data; count on the stated rates, not on these rows.

SMILES	Vif TR-FRET	MLL AF4-AF9 inh	HNF4A DNA FP	ALR inh	FGF22 binding	E coli growth	Ecoli rRNA inh	Ecoli rRNA inh OD600	Ecoli rRNA inh RFP
COc1ccc(S(=O)(=O)N[C@@H]2CC[C@@H](CC(=O)NCCc3ccncc3)O[C@H]2CO)cc1	·	-2.1	·	·	i	·	-1	-6	0.2
CCn1c(/C=C2/C(=O)N(C)c3ccccc32)nc2ccccc2c1=O	18%	·	0.1	-3	·	0.69	·	·	·
COc1cc2c(cc1NC(=O)/C=C/c1ccccc1)oc1ccccc12	10%	-0.4	1.6	-2	i	0.76	10	8	-2.6
N#CCCn1cc(/C=N/NC(N)=S)c(-c2ccccc2)n1	-4%	1.0	-2.9	18	i	·	-6	-3	-5.9
CC(=O)Nc1ccc(Nc2cc(C(C)C)nc3c(-c4ccccc4)c(C)nn23)cc1	11%	0.4	-1.9	0	i	0.65	2	-7	1.0
CN1CCCc2cc3c(C(F)(F)F)cc(=O)oc3nc21	-4%	·	-72	-7	·	0.69	·	·	·
C[C@H]1CN([C@@H](C)CO)C(=O)Cc2cc(NC(=O)CCC(F)(F)F)ccc2O[C@@H]1CN(C)Cc1ccc(-c2ccccc2)cc1	·	1.3	·	·	i	·	-3	-13	2.7
CCCOc1ccc(/C(O)=C2/C(=O)C(=O)N(CCN(C)C)C2c2ccc(O)c(OC)c2)cc1 (configuration not stated)	13%&23%	·	1.2	·	·	0.67	·	·	·
COc1cc(NC2c3ncccc3C(=O)N2Cc2ccco2)cc(OC)c1 (configuration not stated)	2%&5%	·	3.9	-10	·	0.72	5	5	1.1
COc1ccc(CN2C(=O)c3ccccc3C2C(=O)NC2CCCC2)c(OC)c1 (configuration not stated)	5%&3%	·	1.3	-4	·	0.65	·	·	·

A second format for part of the listing above:
CC(=O)Nc1ccc(Nc2cc(C(C)C)nc3c(-c4ccccc4)c(C)nn23)cc1
  Vif TR-FRET: 11%	MLL AF4-AF9 inh: 0.4	HNF4A DNA FP: -1.9	ALR inh: 0	FGF22 binding: i	E coli growth: 0.65	Ecoli rRNA inh: 2	Ecoli rRNA inh OD600: -7	Ecoli rRNA inh RFP: 1.0
CN1CCCc2cc3c(C(F)(F)F)cc(=O)oc3nc21
  Vif TR-FRET: -4%	MLL AF4-AF9 inh: ·	HNF4A DNA FP: -72	ALR inh: -7	FGF22 binding: ·	E coli growth: 0.69	Ecoli rRNA inh: ·	Ecoli rRNA inh OD600: ·	Ecoli rRNA inh RFP: ·

The list continues.
SMILES	Vif TR-FRET	MLL AF4-AF9 inh	HNF4A DNA FP	ALR inh	FGF22 binding	E coli growth	Ecoli rRNA inh	Ecoli rRNA inh OD600	Ecoli rRNA inh RFP
COc1ccc(NC(=O)Nc2ccc3c(c2)C(=O)N([C@@H](C)CO)C[C@@H](C)[C@@H](CN(C)C(=O)c2ccccc2)OCCCC[C@@H](C)O3)cc1	·	0.2	·	·	i	·	-4	-15	-0.1
O=c1c(-c2nc3ccccc3s2)cccn1Cc1ccc(Cl)c(Cl)c1	-8%	·	1.5	7	·	0.7	·	·	·
CCOc1cc(CNCCc2c[nH]c3ccccc23)cc(Cl)c1OCC(N)=O	-6%	10	-1.6	24	i	0.71	5	-2	-1.8
CCOC(=O)CCCSc1nc2sc(C)c(C)c2c(=O)[nH]1	3%	-4.7	3.2	-11	i	0.74	1	8	2.6
CC(=O)NC(c1ccccc1)c1c(O)ccc2ccccc12 (configuration not stated)	·	-0.5	1.6	0	·	0.62	-25	-36	-6.6
O=c1[nH]c2ccccc2n2c(-c3ccncc3)nnc12	5%	·	2.3	·	·	0.7	·	·	·
COc1ccc(C(=O)Nc2ccccc2C(=O)N2CCOCC2)cc1	·	2.5	-0.3	-13	i	0.65	1	7	0.8
COCCn1c(C2CCCCC2)nc2sc3ccccc3c(=O)c2c1=O	-10%	·	-1.1	3	·	0.71	·	·	·
CCOc1ccc(N2C(=O)S/C(=C\c3ccc(O)c(OC)c3)C2=O)cc1	-3%	-2.3	11	-4	i	0.69	-1	-9	-3.8
CCCCCCn1c(=O)n2n(c1=O)[C@@H]1CN(S(=O)(=O)c3ccc(C)cc3)C[C@]1(O)[C@@H](OC(=O)Nc1cccs1)C2	0%	1.0	2.1	·	i	·	-7	-17	2.1
O=C(Nc1nnc(SCc2ccccc2Cl)s1)c1cccc([N+](=O)[O-])c1	·	48*	-0.3	31	i	0.69	-15	-23	-7.4
CCN(CC)c1nc(Oc2ccc(=O)[nH]n2)nc(N2CCOCC2)n1	3%	0.5	0.0	-10	i	0.69	·	·	·
COc1ccc(CCNC(=O)C23CN(Cc4ccccc4)CC2C(c2cccc([N+](=O)[O-])c2)=NO3)cc1 (configuration not stated)	-4%	9.7	2.9	1	i	0.69	10	8	-3.1
COc1ccc(NCC(=O)N/N=C/C2CCCCC2)cc1	11%	·	0.8	92*	i	·	9	6	0.7
CN(C)/C=N/c1ncn(-c2ncc(C(F)(F)F)cc2Cl)n1	-7%	0.3	-1.7	4	i	·	·	·	·
CCN(CC)CC(C)OC(=O)COc1ccc(OC)cc1 (configuration not stated)	-2%	·	2.7	-4	·	0.71	·	·	·
Cc1ccc(C(=O)O/N=C\c2ccc(N3CCCCC3)c([N+](=O)[O-])c2)cc1	?	·	0.7	-4	·	·	·	·	·
Cn1c(-c2cccc(Br)c2)cnc1NCc1ccccc1O	·	26*	6.1	?	i	0.61	4	-21	0.4
COc1ccc(CCNC(=O)CSc2nnnn2Cc2ccc3c(c2)OCO3)cc1OC	9%	·	-2.1	-3	·	0.68	·	·	·
FC(F)(F)c1cccc(N2CCC(N=CN3CCCCCC3)=N2)c1	8%	8.8	-0.2	51	i	0.64	-23	-25	5.9
O=C(c1ccc(N2C(=O)C3C4CC(C(Br)C4Br)C3C2=O)cc1)N1CCCCC1 (configuration not stated)	·	-1.0	2.1	·	i	0.7	8	2	-3.0
CC1Cc2ccccc2N1C(=O)CN1CCN(Cc2ccccc2)CC1 (configuration not stated)	4%	1.8	-1.3	·	i	0.67	3	2	-1.1
O=C(c1ccco1)N1CCN(C(c2cccs2)c2sc3ncnn3c2O)CC1 (configuration not stated)	0%	-3.3	5.3	3	i	0.77	-4	10	10
O=C1CC(N2CCSCC2)C(=O)N1c1ccc(F)cc1 (configuration not stated)	4%	-4.5	-1.3	-3	i	0.64	11	4	3.1
CC1CCC(NC(=O)C(NC(=O)c2ccccc2)C(C)C)CC1 (configuration not stated)	5%	-1.5	0.2	-3	·	0.71	17	14	2.3
CN(CC(=O)Nc1ccc(Cl)cc1)C(=O)CCc1nc2sc3c(c2c(=O)[nH]1)CCCC3	-22%	-1.8	11	10	i	0.65	6	16	2.2
COC(=O)[C@]1(Cc2ccccc2)N[C@H](CN(C)S(=O)(=O)c2ccc(C(C)(C)C)cc2)[C@@H]2C(=O)N(C)C(=O)[C@@H]21	-6%	-1.3	-2.7	·	i	0.7	2	-2	1.3
CCOc1ccc(NC(=O)NNC(=O)COc2ccc3ccccc3c2)cc1	-6%	-2.1	-4.9	-3	i	0.7	3	9	-0.7
C[C@@H]1CN([C@H](C)CO)C(=O)Cc2cc(NC(=O)CCCCCC(=O)Nc3ccccc3N)ccc2O[C@H]1CN(C)C(=O)Nc1ccccc1	·	-1.6	·	·	i	·	-2	4	-3.4
CCOc1cccc2sc(=NC(=O)CCS(=O)(=O)c3ccccc3)n(CC)c12	·	2.5	0.6	5	i	0.72	-6	-4	3.9
CCOC(=O)Nc1ccc2c(COC(=O)CN(C)S(=O)(=O)c3ccc(C)cc3)cc(=O)oc2c1	·	-26	-2.2	-16	i	0.71	6	-2	-6.1
COCc1cc(C)nc2sc(C(=O)N3CCN(c4ccccc4)CC3)c(N)c12	0%	-12	-1.9	60	i	0.73	1	2	0.9
Cc1ccc(S(=O)(=O)N2CCCN(C(=O)c3ccc(-n4cccn4)cc3)CC2)cc1	-2%	1.9	-0.1	-18	i	0.71	-5	-13	2.4
CO[C@H]1CN(C)C(=O)c2cc(NC(=O)c3cccc(F)c3)ccc2OC[C@H](C)NC[C@@H]1C	·	-14	·	·	+	·	1	-3	0.7
CC(OC(=O)Cn1cnc2c1c(=O)n(C)c(=O)n2C)C(=O)NC1(C#N)CCCCC1 (configuration not stated)	6%	0.5	2.8	·	i	0.67	4	9	1.1
Cc1ccc(C(=O)NCCN2CCNC2=O)cc1	·	0.0	-0.2	0	i	0.68	11	3	2.1
O=C(Oc1c(CN2CCOCC2)cc(Cl)c2cccnc12)c1ccccc1F	4%	14	0.3	·	i	0.56	-44	-79	-13
C=Cn1cc[n+](CC(=O)c2ccc(Br)s2)c1	-4%	-20	4.4	18	i	0.69	1	1	-3.5
O=C(CNC(=O)c1cccs1)NCC(=O)OCc1ccc(Cl)cc1Cl	-1%	2.1	1.5	2	i	0.68	8	-1	-8.8
C[C@H](CO)N1C[C@H](C)[C@H](CN(C)S(C)(=O)=O)OCCCC[C@H](C)Oc2ccc(NS(=O)(=O)c3cccs3)cc2C1=O	·	-1.9	·	·	i	·	-1	-1	-1.5
CC(=O)Nc1ccc(N/C(C)=C/C(=O)c2cccnc2)cc1	-3%	-2.8	-1.8	-29	i	0.66	6	1	-0.7
O=C(C[C@@H]1CC[C@H](NC(=O)Nc2cccc(F)c2)[C@@H](CO)O1)NCC1CCCCC1	·	0.2	·	·	i	·	-5	-9	5.1
CC(Nc1nc(N2CCN(CCO)CC2)nc2ccccc12)c1ccccc1 (configuration not stated)	?	-1.2	-6.1	-9	i	0.65	12	0	0.8
Cc1ccc(-n2nnnc2SC(C)C(N)=O)c(C)c1 (configuration not stated)	0%	·	-4.0	·	·	0.71	·	·	·
CCCOc1ccc(OCCN2CCCC(C)C2)cc1 (configuration not stated)	0%	·	2.4	0	·	0.72	·	·	·
COc1cc(N)c2ncccc2c1OC	-6%	-2.4	-2.2	·	i	0.68	3	-12	5.2
O=C(COc1ccc(/C=N/NS(=O)(=O)c2ccccc2)cc1)NCCc1ccccc1	-6%	·	-2.9	11	·	·	·	·	·
C[C@H](CO)N1C[C@H](C)[C@H](CN(C)S(=O)(=O)c2ccccc2)Oc2c(NC(=O)C3CCCCC3)cccc2C1=O	·	-5.9	·	·	i	·	-5	-3	-1.3
O=C(CCCn1c(SCC(=O)c2ccccc2)nc2ccccc2c1=O)NCC1CCCO1 (configuration not stated)	-7%	·	0.8	26	·	0.68	·	·	·
CCCN(CC#CC(O)(c1ccccc1)c1cccnc1)CCC (configuration not stated)	7%	-0.2	3.5	1	i	0.62	0	7	-1.7

Remaining list, next part:
SMILES	Vif TR-FRET	MLL AF4-AF9 inh	HNF4A DNA FP	ALR inh	FGF22 binding	E coli growth	Ecoli rRNA inh	Ecoli rRNA inh OD600	Ecoli rRNA inh RFP
O=C(Nc1nccs1)C1CCCN1S(=O)(=O)c1ccc(Cl)cc1 (configuration not stated)	-1%	-12	1.6	-9	i	0.7	-5	-8	0.8
CC1S/C(=C(\C#N)C(=O)NCc2ccco2)N(c2ccc(F)cc2)C1=O (configuration not stated)	14%	·	-0.3	7	·	0.7	·	·	·
COc1ccccc1-n1c(CNC(=O)c2ccco2)nnc1SCC(=O)Nc1nccs1	?	3.1	1.5	-3	i	0.7	2	13	-0.6
NC(c1csc(Nc2cc(NCCCO)ncn2)n1)c1ccccc1Cl (configuration not stated)	·	-0.9	0.9	·	i	·	-1	1	2.4
